Screening data from PubChem.
E coli growth = E. coli growth inhibition. actives 0.21% (n = 330,000). OD600 absorbance (no concentration beside the values). Escherichia coli growth, OD600, 23 h; stronger effect = lower value;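 active = OD600 absorbance below the run mean of sample wells minus 3.6 SD, in any replicate, cut at about 0.56 in these data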;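 also: stock transfer was 300 nL into about 60 µL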
UCH37 DUB inh = blocks the human deubiquitinase UCH37 | inhibition, % (concentration not given with the values) | AID 588478 | purified proteasome/UCH37, Ub-AMC cleavage fluorescence | Q9Y5K5 | actives 0.33% (n = 330,000);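 active = mean of two replicates above 20%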;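 also: 0% = compound-free wells with enzyme and 100% = wells lacking proteasome; stock transfer was 100 nL into about 20 µL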
Target sequence (Q9Y5K5 whole entry, looked up): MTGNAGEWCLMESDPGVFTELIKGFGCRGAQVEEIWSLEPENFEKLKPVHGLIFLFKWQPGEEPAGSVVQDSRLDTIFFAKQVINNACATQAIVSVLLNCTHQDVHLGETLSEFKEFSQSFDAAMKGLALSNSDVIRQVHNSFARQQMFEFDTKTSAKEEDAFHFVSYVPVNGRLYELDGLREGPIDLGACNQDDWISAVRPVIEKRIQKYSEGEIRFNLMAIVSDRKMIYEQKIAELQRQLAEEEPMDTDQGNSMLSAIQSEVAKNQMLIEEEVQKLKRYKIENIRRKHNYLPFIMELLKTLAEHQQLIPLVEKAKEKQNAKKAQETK
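Material: Human UCH37 enzyme supplied as purified proteasome complex | Schedule: 30 min compound-proteasome preincubation then 25 min substrate reaction, room temperature | Detection: AMC fluorescence from Ub-AMC cleavage, excitation 355 nm, emission 460 nm | Benchmarks: Wells without proteasome as full block, compound-free enzyme plus substrate as uninhibited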
The depositor's hits bear a star.

Compound	E coli growth	UCH37 DUB inh
O=C(NN=Cc1c[nH]c2ccccc12)C1CC1c1ccccc1 (stereo not given)	0.7	2.2
S=c1[nH]nc(-c2ccco2)n1N=Cc1ccc(Cl)cc1Cl	0.7	3.2
Cc1ccc(C(=O)NN=Cc2ccccc2[N+](=O)[O-])cn1	0.67	3.3
COc1ccc2nc(Cl)c(C=NNc3ccccn3)cc2c1	0.72	2.0
CCc1c(C(=O)NN=Cc2ccco2)nnn1-c1nonc1N	0.64	-0.9
CCC(=O)NN=Cc1ccc(-c2ccc([N+](=O)[O-])cc2)o1	0.67	5.2
Cc1cc(-c2n[nH]c(=S)n2N=Cc2cccs2)n[nH]1	0.72	7.2
CN(C)N=Nc1ccc(S(=O)(=O)N=C(O)c2ccccc2)cc1	0.68	12
O=C(NN=Cc1ccccn1)c1cccc(NC(=O)c2ccccc2Cl)c1	0.66	2.1
CC(=NOC(=O)C1CC1)c1cc(-c2ccc(Cl)cc2)no1	0.65	0.7
O=[N+]([O-])c1ccc(C=NN2CCN(c3ccncc3S(=O)(=O)N3CCCCC3)CC2)cc1	0.71	3.2
O=C(Nc1ccccc1C(=O)NN=Cc1ccncc1)c1ccccc1	0.71	5.3
COc1ccc(C=NNc2nc(N3CCCC3)nc(N3CCCC3)n2)cc1O	0.7	3.3
C(=NNc1nnnn1-c1ccccc1)c1ccncc1	0.66	6.5
CNC(=S)NN=C(C)c1ccc2c(c1)OCO2	0.64	4.3
CC(=O)Nc1sc(NN=Cc2ccc(N(C)C)cc2)nc1-c1ccc(C)cc1	0.7	-34
COc1cc(C=NNC(=O)CCN2CCN(C(c3ccccc3)c3ccccc3)CC2)ccc1O	0.66	-4.6
C=CCc1cccc(C=NNC(=O)c2ccc3nc[nH]c3c2)c1O	0.65	-1.5
COc1ccc(CC(=O)NN=C(C)CC(=O)Nc2ccc(N(C)C)cc2)cc1OC	0.72	2.7
CNC(=S)NN=Cc1cn(CCOc2ccc(OC)cc2)c2ccccc12	0.71	2.3

Next structures.
Compound	E coli growth	UCH37 DUB inh
Cc1c(C(=O)O)oc2c1C(=NO)CC(C)(C)C2	0.64	0.1
COC(=O)NN=Cc1cn(Cc2ccc(F)cc2)c2ccccc12	0.64	1.7
COc1ccc(-n2c(SCC(=O)NN=Cc3ccccc3OCC(=O)O)nc3ccccc3c2=O)cc1	0.73	3.3
O=C(NN=Cc1cccc([N+](=O)[O-])c1O)C(O)(c1ccccc1)c1ccccc1	0.7	5.7
Cc1ccsc1C=Nn1c(COc2ccccc2)n[nH]c1=S	0.7	7.3
Cc1ccsc1C=NNC(=O)c1sccc1C	0.75	9.1
O=C(NN=Cc1ccncc1)c1nc(-c2ccccc2)n2c1CCCCC2	0.67	6.2
Cn1nccc1C(=O)NN=Cc1cccnc1	0.66	1.9
COc1cc([N+](=O)[O-])cc(C=NN(CCC#N)C(C)=O)c1O	0.71	13
Cc1ccc(S(=O)(=O)N2CCOCC2)cc1NN=C(C#N)c1nc2ccccc2[nH]1	0.72	2.4
COc1ccc(C=NNC(=O)CCn2nc(C)cc2C)cc1O	0.69	1.7
CC(=O)Nc1ccc(C=NNC(=O)CNS(=O)(=O)c2ccccc2)cc1	0.65	1.6
COCCNC(=O)C(=O)NN=C(C)CC(=O)Nc1cccnc1	0.73	1.6
CCn1c(SCC(=O)NN=Cc2ccc(O)c(OC)c2)nc2ccccc21	0.68	3.4
O=[N+]([O-])c1cc(C=NN2CCOCC2)cs1	0.64	6.5
Cc1cc(NN=Cc2ccc(N(C)C)cc2)c2ccccc2n1	0.67	-23
COc1ccc(C=NNC(=O)CN(CCc2ccccc2)S(=O)(=O)c2ccc(NC(C)=O)cc2)cc1OC	0.71	7.0
COc1ccc(OC)c(C=NNC(=O)c2ccc[n+](CC(=O)c3ccccc3)c2)c1	0.73	1.6
Cn1cc(C(=O)c2cccc(Cl)c2)cc1C=NO	0.7	1.6
Cc1cc(C=Nn2c(COc3ccccc3)nc3ccccc3c2=O)c(O)c([N+](=O)[O-])c1	0.7	6.5

New compounds follow
Compound	E coli growth	UCH37 DUB inh
CC(C)CCNC(=O)CON=Cc1ccccc1OC(F)F	0.7	3.1
Cc1nnc(C)n1N=Cc1ccc(C(C)C)cc1	0.7	0.9
CCn1c(SCC(=O)NN=Cc2c[nH]c3ccccc23)nnc1-c1ccc(C(C)(C)C)cc1	0.72	5.5
CCNC(=S)NN=C(C)c1cccc(OC)c1	0.63	2.7
COc1ccc(Cl)cc1NC(=O)CC(C)=NNC(=O)C(=O)NCc1ccccc1	0.64	2.7
COc1ccc(C=NNC(=O)c2ccn[nH]2)cc1COc1ccc(Cl)cc1	0.71	0.5
CC(=O)n1cc(C=NNC(=O)c2cccc(O)c2)c2ccccc21	0.66	0.4
COc1cccc(C=NNC(=O)c2cccc3ccccc23)c1	0.64	-2.1
CC(Cc1ccccc1)=NNC(=O)CCCC(=O)NN=C(C)Cc1ccccc1	0.68	3.5
FC(F)(F)c1n[nH]c(=S)n1N=Cc1ccco1	0.72	5.9
COc1cc(C=NNC(=O)c2cc(-c3cccn3C)n[nH]2)cc(OC)c1OC	0.69	2.4
O=C(NN=Cc1cccc(Br)c1)c1ccc(Cn2cc(Br)cn2)o1	0.6	-1.7
Br/C(C=Nn1cnnc1)=C\c1ccccc1	0.64	1.2
CC(/C=C/c1ccccc1)=NNC(=S)NC(C)C	0.7	3.9
Cc1cc(C)nc(SCc2ccc(C(=O)NN=Cc3ccccc3C(=O)O)cc2)n1	0.67	3.0
O=C(COc1nsnc1N1CCOCC1)NN=Cc1ccccc1O	0.67	-16
Cc1cc(C=NNC(=O)CC2(C)OCCO2)c(C)n1-c1cc(Cl)cc(Cl)c1	0.74	3.5
Cc1nn(-c2ccc(F)cc2)c(Cl)c1C=NNC(=O)c1ccc(O)cc1	0.64	1.9
COc1ccccc1CNC(=O)CC(C)=NNC(=O)Cc1ccc(Cl)cc1	0.68	1.9
O=c1[nH]ncc(NN=Cc2ccccc2)c1Cl	0.66	11

(list continues)
Compound	E coli growth	UCH37 DUB inh
O=C(CNC(=O)c1ccco1)NN=Cc1ccc(O)cc1O	0.7	-12
CCn1nc(C)c(C=NNC(=O)Cn2nnc(N)n2)c1C	0.62	0.7
CC1CCCC(C)N1N=Cc1ccc(C(=O)O)cc1 (stereo not given)	0.65	1.5
COc1ccccc1NC(=S)NN=Cc1cccc(C)c1	0.71	0.2
COc1ccc(CC(C)=NNC(=O)c2ccc(Cl)cc2)cc1	0.68	-3.8
O=C(NN=Cc1ccc(OC(=O)c2ccc(Br)cc2)cc1)c1ccncc1	0.64	3.6
O=C(NN=Cc1ccc(-c2ccc([N+](=O)[O-])cc2)o1)C1COc2ccccc2O1 (stereo not given)	0.68	2.6
COc1ccccc1C=NNC(=O)c1ccc(CN2C(=O)c3cccc4cccc2c34)cc1	0.69	-163
Cc1cc(C(=O)NN=C2CC(=O)c3ccccc32)c(C)n1-c1ccccc1	0.74	-2.4
O=C(O)COc1ccccc1C=NNC(=O)CSc1nc2ccccc2c(=O)n1-c1ccc(Cl)cc1	0.72	1.8
CC(=NNC(=O)c1cccc(C)c1O)c1ccc(NC(=O)Cc2ccccc2)cc1	0.69	11
COc1cc(C=NN=C2C(=O)Nc3ccccc32)ccc1O	0.7	18
O=C(Cn1ccc(C(F)(F)F)n1)NN=Cc1ccc(N2CCOCC2)cc1	0.67	-185
CC1CC(=NNC(=O)c2cccs2)CC(C)(C)C1 (stereo not given)	0.68	-2.2
Cc1ccsc1C=NNC(=O)CCc1c(C)n[nH]c1C	0.71	7.9
CCOC(=O)c1c(NN=Cc2ccncc2)n[nH]c1C	0.71	4.6
Cc1cccc(C=c2sc(=CC(=O)C(C)(C)C)[nH]c2=O)c1	0.74	1.3
COc1ccc(OC)c(C=NNC(=O)CC2C(=O)NN=C2C)c1 (stereo not given)	0.69	-478
CC1=C(C#N)C2C(C1=NO)C2(C)C (stereo not given)	0.63	0.9
COC(=O)Oc1ccc(C=NNS(=O)(=O)c2ccccc2)cc1OC	0.69	5.3

(further entries)
Compound	E coli growth	UCH37 DUB inh
Cc1cc(C)nc(NN=Cc2ccccc2OCC(=O)O)n1	0.64	8.5
O=S(=O)(NN=Cc1ccc(Cl)cc1)c1ccc(Cc2ncc(C(F)(F)F)cc2Cl)s1	0.74	0.9
N#Cc1ccc(C(=O)NN=Cc2cn(CC(=O)O)c3ccccc23)c(F)c1	0.71	13
COc1ccc(NC(=S)NN=Cc2ccc(F)cc2)cc1OC	0.72	1.3
COc1ccc2[nH]c3c(c2c1)CCCC3=NN	0.63	2.9
Cc1ccc(Cn2nc(C)c(C=NNC(=O)c3cccnc3)c2C)cc1	0.66	4.3
Cc1nonc1C(=O)NN=Cc1ccc(O)cc1	0.67	2.9
COC(=O)c1scc(S(=O)(=O)C(C)C)c1NN=C(C#N)C(=O)c1ccc(Cl)cc1	0.65	8.3
CC(=NNC(=O)c1cccnc1)c1cccc([N+](=O)[O-])c1	0.68	0.3
CC(/C=C/c1ccco1)=NNC(=O)c1ccccc1Cl	0.67	13
COc1ccc(C=NNC(=O)c2ccc(-c3ccccc3)cc2)cc1O	0.69	-3.4
COc1cc(C=NNC(=S)Nc2cccc(C(=O)O)c2)cc(OC)c1OC	0.68	12
O=C(NN=Cc1ccc(-c2ccccc2[N+](=O)[O-])o1)c1cccnc1	0.67	20
Nc1nnnn1N=Cc1ccc(O)cc1	0.73	-1.6
COc1c(C=NNS(=O)(=O)c2ccc(C)cc2)c(CCN(C)C(C)=O)cc2c1OCO2	0.71	2.7
CC(=NNC(=O)c1ccc(F)cc1)c1cccc(NC(=O)c2cccc(F)c2)c1	0.71	3.6
Cc1n[nH]c(=S)n1N=Cc1ccc(OCc2ccc(Cl)cc2)cc1	0.69	3.2
Cc1ccccc1NCC(=O)NN=Cc1c[nH]c2ccccc12	0.67	4.1
CC(C)(C)c1ccc(-c2nn(CCC#N)cc2C=NO)cc1	0.75	2.4
Cc1onc(-c2ccccc2)c1C(=O)NN=Cc1cc2c(cc1Br)OCO2	0.65	-0.2

Quoted from the listing.
UCH37 DUB inh with COc1ccc(C=NNC(=O)c2ccc(-c3ccccc3)cc2)cc1O reads -3.4
E coli growth with N#Cc1ccc(C(=O)NN=Cc2cn(CC(=O)O)c3ccccc23)c(F)c1 reads 0.71
E coli growth with CC(=NNC(=O)c1cccnc1)c1cccc([N+](=O)[O-])c1 reads 0.68
E coli growth with CC(/C=C/c1ccco1)=NNC(=O)c1ccccc1Cl reads 0.67
UCH37 DUB inh with COC(=O)c1scc(S(=O)(=O)C(C)C)c1NN=C(C#N)C(=O)c1ccc(Cl)cc1 reads 8.3
E coli growth with Cc1nonc1C(=O)NN=Cc1ccc(O)cc1 reads 0.67
UCH37 DUB inh with Cc1ccc(Cn2nc(C)c(C=NNC(=O)c3cccnc3)c2C)cc1 reads 4.3

The list continues:
Compound	E coli growth	UCH37 DUB inh
ON=C1CCC(=NO)c2nn(-c3ccccc3)nc21	0.69	2.2
Cc1ccccc1C(=O)ON=C(N)c1cccc([N+](=O)[O-])c1	0.73	1.0
O=C(Cc1cccc2ccccc12)NN=Cc1ccc(F)cc1	0.72	1.8
CCc1cc(C(Cc2ccccn2)=NNc2ccccc2)c(O)cc1O	0.69	8.1
NC(=NOC(=O)CSc1ccccc1)c1ccc([N+](=O)[O-])cc1	0.71	3.0
CC(Cn1nc([N+](=O)[O-])cc1C)=NNC(=O)c1ccc(C(C)(C)C)cc1	0.66	0.6
COc1ccc(C(=O)NN=C(CCC(=O)O)c2ccc(C(C)(C)C)cc2)cc1OC	0.65	-0.9
O=C(CCN1CCN(c2ccccc2)CC1)NN=Cc1ccc(O)c(O)c1O	0.72	7.6
O=[N+]([O-])c1ccc(C=NNC(=S)Nc2ccccc2)o1	0.7	7.3
CCOC(=O)Cc1cc(=O)[nH]c(N=C(NC(=O)c2ccccc2)Nc2ccccc2C(F)(F)F)n1	0.74	4.3
Cc1c(C=Nn2cnnc2)c2ccccc2n1CCOc1ccccc1	0.71	-0.7
Cc1cc(C(=O)NN=Cc2ccc(O)c([N+](=O)[O-])c2)c(C)n1-c1ccc(F)cc1	0.67	9.9
COc1cccc(C(=O)NCC(=O)NN=Cc2ccc(OC(=O)c3cccs3)c(OC)c2)c1	0.65	2.4
Cc1ccc2c(C)nc(N=C(N)NC(=O)N3c4ccccc4Sc4ccccc43)nc2c1	0.72	2.5
CC(=NNS(C)(=O)=O)c1ccc2ccccc2c1	0.7	1.8
C(=NN(c1ccccc1)c1ccccc1)c1ccccn1	0.66	1.8
C/C(C=NNc1nnc(C)c(=O)[nH]1)=C\c1ccccc1	0.7	8.8
COc1ccc(N2Cc3ccccc3C2=NC(=O)Nc2ccccc2)cc1	0.75	-37
Fc1ccc(C=NN2CCCCC2)c(F)c1	0.67	-22
COc1ccc2oc(=O)c(C(C)=NNc3nc(-c4cc(C)ccc4C)cs3)cc2c1	0.78	5.2
O=C(C[n+]1ccccc1)NN=Cc1ccco1	0.68	1.9

Record cards, from the list above.
CC(=NNS(C)(=O)=O)c1ccc2ccccc2c1 reads E coli growth = 0.7; UCH37 DUB inh = 1.8
CC(Cn1nc([N+](=O)[O-])cc1C)=NNC(=O)c1ccc(C(C)(C)C)cc1 reads E coli growth = 0.66; UCH37 DUB inh = 0.6

Only part of the results is shown; count on the stated rates, not on these rows.
